High-throughput results as filed in PubChem.
VHR inh abs = blocks human VHR1 dual specificity phosphatase | inhibition, % at 13.3 µM | AID 1654 | P51452 | actives 0.52% (n = 290,000) | recombinant VHR phosphatase, pNPP absorbance; in the data active = inhibition above about 50%; also: some compounds called inactive have numbers as strong as hits
Yp Topo-I inh = blocks Yersinia pestis topoisomerase I activity; AID 504884; activity, % at 10 µM; actives 0.064% (n = 360,000); Y. pestis Topo-I cleavage product accumulation, plate reader; in the data active = activity above about 50%, passing the limit was not always enough; also: inactives centre near 2
TcdB GH inh = blocks C. difficile toxin B glycohydrolase activity; P18177; inhibition, % at 9.99 µM; TcdB glycohydrolase enzymatic assay, plate reader; actives 0.24% (n = 350,000); in the data active = inhibition above about 10%
Target sequence (P18177 whole entry, looked up): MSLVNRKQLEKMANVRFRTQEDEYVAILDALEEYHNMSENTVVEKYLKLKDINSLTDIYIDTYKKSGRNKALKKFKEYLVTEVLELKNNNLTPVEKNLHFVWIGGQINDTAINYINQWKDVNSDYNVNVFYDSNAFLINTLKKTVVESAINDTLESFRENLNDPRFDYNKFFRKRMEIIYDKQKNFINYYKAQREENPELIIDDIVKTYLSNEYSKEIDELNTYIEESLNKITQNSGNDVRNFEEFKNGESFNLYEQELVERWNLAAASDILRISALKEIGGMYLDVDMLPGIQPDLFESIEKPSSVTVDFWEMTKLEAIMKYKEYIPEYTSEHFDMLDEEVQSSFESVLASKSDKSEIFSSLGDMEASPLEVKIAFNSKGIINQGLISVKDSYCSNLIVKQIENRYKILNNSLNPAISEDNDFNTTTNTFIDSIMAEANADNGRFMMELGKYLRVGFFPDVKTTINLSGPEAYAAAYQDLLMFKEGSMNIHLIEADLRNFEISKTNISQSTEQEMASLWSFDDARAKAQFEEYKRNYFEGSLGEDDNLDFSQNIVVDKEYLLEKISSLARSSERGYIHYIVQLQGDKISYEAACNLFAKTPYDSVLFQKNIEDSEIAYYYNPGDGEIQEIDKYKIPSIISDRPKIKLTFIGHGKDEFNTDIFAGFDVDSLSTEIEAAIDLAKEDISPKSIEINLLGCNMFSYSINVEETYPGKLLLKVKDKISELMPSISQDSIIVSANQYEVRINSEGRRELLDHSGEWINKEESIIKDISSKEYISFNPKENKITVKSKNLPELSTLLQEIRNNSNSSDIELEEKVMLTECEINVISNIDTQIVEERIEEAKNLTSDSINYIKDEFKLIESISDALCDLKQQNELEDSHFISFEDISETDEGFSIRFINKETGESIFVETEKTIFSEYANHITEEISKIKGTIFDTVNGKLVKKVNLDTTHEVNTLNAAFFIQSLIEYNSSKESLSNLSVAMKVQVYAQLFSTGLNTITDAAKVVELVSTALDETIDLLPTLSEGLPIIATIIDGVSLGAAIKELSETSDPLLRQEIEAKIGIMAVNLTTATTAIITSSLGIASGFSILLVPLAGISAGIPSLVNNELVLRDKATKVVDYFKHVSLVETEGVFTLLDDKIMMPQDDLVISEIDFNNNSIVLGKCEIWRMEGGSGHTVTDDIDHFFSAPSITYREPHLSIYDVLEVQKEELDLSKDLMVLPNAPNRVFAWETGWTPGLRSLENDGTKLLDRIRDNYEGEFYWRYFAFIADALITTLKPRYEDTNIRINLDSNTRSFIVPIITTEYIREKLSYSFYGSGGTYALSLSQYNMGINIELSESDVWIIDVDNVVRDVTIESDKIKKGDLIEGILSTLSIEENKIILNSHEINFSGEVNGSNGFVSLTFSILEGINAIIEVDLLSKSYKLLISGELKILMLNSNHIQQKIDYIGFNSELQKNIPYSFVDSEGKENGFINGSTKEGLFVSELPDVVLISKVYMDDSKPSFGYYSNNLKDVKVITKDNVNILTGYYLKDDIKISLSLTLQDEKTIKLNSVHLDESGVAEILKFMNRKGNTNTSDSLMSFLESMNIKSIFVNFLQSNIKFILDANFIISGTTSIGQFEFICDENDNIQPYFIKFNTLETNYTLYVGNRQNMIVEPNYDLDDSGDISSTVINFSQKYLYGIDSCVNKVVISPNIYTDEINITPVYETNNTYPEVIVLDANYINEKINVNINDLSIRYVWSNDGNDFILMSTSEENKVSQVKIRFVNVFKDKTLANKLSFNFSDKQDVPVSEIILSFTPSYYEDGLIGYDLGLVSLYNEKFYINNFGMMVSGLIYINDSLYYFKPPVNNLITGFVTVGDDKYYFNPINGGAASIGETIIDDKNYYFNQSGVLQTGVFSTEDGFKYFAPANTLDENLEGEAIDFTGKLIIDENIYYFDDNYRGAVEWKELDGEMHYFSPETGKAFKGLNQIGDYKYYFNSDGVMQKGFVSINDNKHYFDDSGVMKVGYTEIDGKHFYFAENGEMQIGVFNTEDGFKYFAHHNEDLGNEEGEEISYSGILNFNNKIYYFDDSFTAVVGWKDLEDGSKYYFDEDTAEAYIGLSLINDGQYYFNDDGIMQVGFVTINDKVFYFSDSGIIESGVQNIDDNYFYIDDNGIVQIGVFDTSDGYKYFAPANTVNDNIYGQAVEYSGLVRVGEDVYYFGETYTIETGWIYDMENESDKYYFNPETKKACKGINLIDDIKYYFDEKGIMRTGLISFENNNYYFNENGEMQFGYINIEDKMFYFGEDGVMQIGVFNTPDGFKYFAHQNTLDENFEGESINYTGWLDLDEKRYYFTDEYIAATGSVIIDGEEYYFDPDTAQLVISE
Vc quorum ag = induces V. cholerae light production without autoinducers. activation, % at 18.7 µM. actives 0.16% (n = 350,000). AID 588436. V. cholerae BH1578 lux reporter, luminescence, 6 h; in the data active = activation mostly above about 9.7%, no sharp cut-off; also: not every result past the cut was called active; inactives centre near 0; reference of the scale not given here
Rv3671c inh = inhibitors of M. tuberculosis serine protease Rv3671c. P9WHR9. inhibition, % at 5.96 µM. actives 0.048% (n = 320,000). AID 2606; in the data active = inhibition above about 38%;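 also: extracellular domain of Rv3671c used as enzyme; 0% = enzyme with DMSO and 100% = no enzyme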
MazEF act = activators of E. coli MazEF toxin-antitoxin RNase. P0AE70. actives 0.32% (n = 350,000). activation, % at 20 µM. AID 504720. FAM/BHQ RNA-DNA oligo cleavage fluorescence, 5 h; in the data active = activation above about 50%
PrPC surface inh = cell surface PrPC inhibition, primary TR-FRET screen. P04156. TR-FRET read-out. inhibition, % at 13.8 µM. actives 0.43% (n = 370,000). AID 720596; in the data active = inhibition above about 24%; also: 0% = median of the test wells and 100% = reference compound wells
The depositor's hits bear a star; i = inactive; . = no result given; & = joins results of further samples. The list is partial, so the mix of outcomes need not match the whole.

SMILES	VHR inh abs	Yp Topo-I inh	TcdB GH inh	Vc quorum ag	Rv3671c inh	MazEF act	PrPC surface inh
C[C@]12CCC3=C4CCC(=O)C=C4CC[C@H]3C1CC[C@@H]2O (stereo partly specified)	66	-2	3.9	-0.6	0	1	-12
O=c1[nH]c2c(c(=O)n1C1CCCCC1)CCC2	-6	6	.	-0.7	1	1	0
CC(C)(C)c1ccc(-n2ncc3c2CCCC3NC(=O)CCN2CCCC2=O)cc1 (stereo unspecified)	12	32	-4.2	-3.8	7	5	12
CC(=O)Nc1ccc(Oc2ncccn2)cc1	21	-1	.	i	-1	-47	2
Cc1ncc([N+](=O)[O-])n1CC(C)O (stereo unspecified)	16&13	0	1.2	i	-2	7	-11
COc1ccc2c(c1OC)C(=O)O[C@@H]2[C@H]1c2cc3c(cc2CCN1C)OCO3	.	6	-0.2	-0.7	-11	-4	1
C[C@]12CC[C@@H]3c4ccc(O)cc4CC[C@H]3[C@@H]1CC[C@@H]2O	5	0	1.3	4.2	1	7	-7
C[C@]12CCC(=O)C=C1CC[C@@H]1[C@@H]2C(=O)C[C@@]2(C)[C@H]1CC[C@]2(O)C(=O)CO	-7	8	-0.4	i	0	10	-7
Cc1ccccc1C(=O)N/N=C/c1ccc(Sc2ccccn2)o1	-5	3	.	-0.2	-12	7	-9
NC1=NC(=O)C(c2ccccc2)O1 (stereo unspecified)	7	.	.	.	.	.	.
O=C(O)CC(O)C(=O)O (stereo unspecified)	33	8	.	i	3	4	2
NC12CC3CC(CC(C3)C1)C2	5	7	-0.1	4.2	4	-3	10
Cc1cccc(Nc2ncnc3ccccc23)c1	-17	-2	2.0	0.4	6	3	2
CCOC(=O)[C@H](CCc1ccccc1)N[C@@H](C)C(=O)N1[C@H](C(=O)O)C[C@@H]2CCC[C@@H]21	.	-2	-3.1	3.0	2	2	4
COC(=O)C1=CCCN(C)C1	14	-4	0.9	i	-4	2	-4

Single records (already shown). Values in the order: VHR inh abs, Yp Topo-I inh, TcdB GH inh, Vc quorum ag, Rv3671c inh, MazEF act, PrPC surface inh
`C[C@]12CCC3=C4CCC(=O)C=C4CC[C@H]3C1CC[C@@H]2O` (stereo partly specified) is listed with 66, -2, 3.9, -0.6, 0, 1, -12
`Cc1ncc([N+](=O)[O-])n1CC(C)O` (stereo unspecified) is listed with 16&13, 0, 1.2, i, -2, 7, -11
`CC(=O)Nc1ccc(Oc2ncccn2)cc1` is listed with 21, -1, ., i, -1, -47, 2
`CCOC(=O)[C@H](CCc1ccccc1)N[C@@H](C)C(=O)N1[C@H](C(=O)O)C[C@@H]2CCC[C@@H]21` is listed with ., -2, -3.1, 3.0, 2, 2, 4
`NC1=NC(=O)C(c2ccccc2)O1` (stereo unspecified) is listed with 7, ., ., ., ., ., .

Next results follow:
SMILES	VHR inh abs	Yp Topo-I inh	TcdB GH inh	Vc quorum ag	Rv3671c inh	MazEF act	PrPC surface inh
C#CCN(C)C(C)Cc1ccccc1 (stereo unspecified)	-3	3	-0.1	i	3	-21	7
O=C1NC(=S)SC1=Cc1ccccn1	.	.	-0.7	.	.	.	-4
COc1ccccc1C(=O)NNC(=S)NC(=O)c1ccco1	-8	0	.	-0.3	-5	3	9
COc1cccc(N2CCN(CC(=O)Nc3ccc(-n4cnnn4)cc3)CC2)c1	26	0	0.9	-0.4	12	13	-6
COc1cccc(C(=O)Nc2cc3c(cc2N2CCCC2)n(C)c(=O)n3C)c1	21	4	-0.3	-0.3	0	8	2
NS(=O)(=O)c1cc2c(cc1Cl)NC(C(Cl)Cl)NS2(=O)=O (stereo unspecified)	9	4	0.2	4.2	10	3	3
Cc1cc(C)nc(NS(=O)(=O)c2ccc(N)cc2)n1	-11	5	0.1	4.2&-0.2	2&-11	5	-2
CC(NC(=O)Cc1ccccc1)c1ccccc1 (stereo unspecified)	16	2	0.7	0.4	-1	7	10
CC(O)(CS(=O)(=O)c1ccc(F)cc1)C(=O)Nc1ccc(C#N)c(C(F)(F)F)c1 (stereo unspecified)	7	.	.	.	-7	.	.
Nc1nc(N)nc(-c2ccc(Cl)cc2)n1	29	2	.	-0.4	-4	3	2
O=C1CCC(C(=O)O)N1 (stereo unspecified)	25	5	1.6	-0.6	-1	10	8
CN[C@@H](C)[C@@H](O)c1ccccc1	25	1	1.6	-0.3	7	-1	-5
Cc1cc(Cl)ccc1OC(C)C(=O)O (stereo unspecified)	15	2	1.2	i	4	-1	4

Arranged by SMILES length (falling): some entries from above.
SMILES	VHR inh abs	Yp Topo-I inh	TcdB GH inh	Vc quorum ag	Rv3671c inh	MazEF act	PrPC surface inh
CC(O)(CS(=O)(=O)c1ccc(F)cc1)C(=O)Nc1ccc(C#N)c(C(F)(F)F)c1 (stereo unspecified)	7	.	.	.	-7	.	.
Cc1cc(C)nc(NS(=O)(=O)c2ccc(N)cc2)n1	-11	5	0.1	4.2&-0.2	2&-11	5	-2
CN[C@@H](C)[C@@H](O)c1ccccc1	25	1	1.6	-0.3	7	-1	-5
O=C1NC(=S)SC1=Cc1ccccn1	.	.	-0.7	.	.	.	-4

Some of the entries so far, with bars between the fields.
SMILES | VHR inh abs | Yp Topo-I inh | TcdB GH inh | Vc quorum ag | Rv3671c inh | MazEF act | PrPC surface inh
NS(=O)(=O)c1cc2c(cc1Cl)NC(C(Cl)Cl)NS2(=O)=O (stereo unspecified) | 9 | 4 | 0.2 | 4.2 | 10 | 3 | 3
Cc1cc(C)nc(NS(=O)(=O)c2ccc(N)cc2)n1 | -11 | 5 | 0.1 | 4.2&-0.2 | 2&-11 | 5 | -2
CC(NC(=O)Cc1ccccc1)c1ccccc1 (stereo unspecified) | 16 | 2 | 0.7 | 0.4 | -1 | 7 | 10
CC(O)(CS(=O)(=O)c1ccc(F)cc1)C(=O)Nc1ccc(C#N)c(C(F)(F)F)c1 (stereo unspecified) | 7 | . | . | . | -7 | . | .
